HNF4A DNA FP: change in binding of human HNF4 alpha to DNA; P41235; activity change, % at 10 µM; 360,000 compounds, 0.3% hits; HNF4a-FITC DNA binding, fluorescence polarization, 1 h; in the data active = activity change above about 30%, passing the limit was not always enough;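 note: controls were the assay level and a saturating level of protein; the project sought stronger binding though the title names inhibitors; some compounds called inactive have numbers as strong as hits; positive values seem to mean higher polarization but the record does not say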
Target sequence (P41235 whole entry, looked up): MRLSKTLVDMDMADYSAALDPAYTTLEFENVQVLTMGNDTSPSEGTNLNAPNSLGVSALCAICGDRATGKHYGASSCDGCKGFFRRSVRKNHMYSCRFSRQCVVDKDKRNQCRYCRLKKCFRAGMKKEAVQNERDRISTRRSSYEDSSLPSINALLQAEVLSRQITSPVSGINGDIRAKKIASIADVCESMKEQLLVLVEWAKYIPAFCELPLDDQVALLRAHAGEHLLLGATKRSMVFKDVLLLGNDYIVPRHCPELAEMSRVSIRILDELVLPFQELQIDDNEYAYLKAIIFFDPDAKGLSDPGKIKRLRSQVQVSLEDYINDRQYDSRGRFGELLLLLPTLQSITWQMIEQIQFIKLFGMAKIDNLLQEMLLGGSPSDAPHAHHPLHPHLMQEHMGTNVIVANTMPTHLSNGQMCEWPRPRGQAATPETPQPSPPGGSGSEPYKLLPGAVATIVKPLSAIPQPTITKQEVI
B2AR ag: agonists of human beta-2 adrenergic receptor inducing internalization. response, % (concentration not given with the values). Am2.2-beta2AR cells, FAP receptor internalization, flow cytometry; reference of the scale not given here. 340,000 compounds, 0.43% hits;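 active = response above a set limit, near 3 SD of response in nonfluorescent compounds, cut at about 42% in these data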;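 note: stock transfer was 100 nL into about 11 µL; a reference agonist was the positive control; negative values mostly stem from fluorescent compounds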
Ecoli rRNA inh: inhibitors of bacterial rRNA selective over humanized ribosomes | E. coli WT GFP vs humanized-ribosome RFP mutants, fluorescence, 24 h; hits give low values; DMSO median 0, no signal -100 | GFP signal change (wild-type ribosome), % (test concentration not listed) | 350,000 compounds, 1.6% hits;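 active = significant combined selectivity score with lowered wild-type GFP, culture density cut under 30%, mutant RFP and density less affected; inactive = any of these conditions unmet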; note: one replicate is shown; some compounds called inactive have numbers as strong as hits
UCH37 DUB inh: blocks the human deubiquitinase UCH37. purified proteasome/UCH37, Ub-AMC cleavage fluorescence. inhibition, % (concentration not given with the values). Q9Y5K5. 330,000 compounds, 0.33% hits;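 active = mean of two replicates above 20%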;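 note: 0% = compound-free wells with enzyme and 100% = wells lacking proteasome; stock transfer was 100 nL into about 20 µL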
Target sequence (Q9Y5K5 whole entry, looked up): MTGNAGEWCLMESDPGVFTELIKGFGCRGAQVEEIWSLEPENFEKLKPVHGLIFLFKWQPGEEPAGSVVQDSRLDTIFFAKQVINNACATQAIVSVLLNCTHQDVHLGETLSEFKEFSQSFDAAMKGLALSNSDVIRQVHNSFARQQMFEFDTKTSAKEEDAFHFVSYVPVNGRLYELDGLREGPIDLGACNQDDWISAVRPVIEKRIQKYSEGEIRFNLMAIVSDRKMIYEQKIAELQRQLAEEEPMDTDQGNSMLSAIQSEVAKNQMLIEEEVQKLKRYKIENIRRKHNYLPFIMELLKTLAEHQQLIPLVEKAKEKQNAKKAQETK
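Material: Human UCH37 enzyme supplied as purified proteasome complex | Schedule: 30 min preincubation with enzyme, 25 min cleavage at room temperature | Detection: AMC fluorescence 355/460 nm | Measure: % inhibition of Ub-AMC cleavage fluorescence | Controls: Wells without proteasome as full block, compound-free enzyme plus substrate as uninhibited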
ALR inh: inhibitors of human sulfhydryl oxidase ALR; inhibition, % (no concentration beside the values); P55789; purified ALR, DTT oxidation, H2O2 HRP-luminol luminescence; 290,000 compounds, 3.8% hits; AID 485317;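 active = mean and each replicate at 75% or more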;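 note: stock transfer was 7.5 nL into about 7.5 µL; 0% = neutral wells and 100% = wells with inactivated enzyme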
Ecoli growth: inhibitors of Escherichia coli growth; AID 1053175; 330,000 compounds, 0.21% hits; OD600, 23 h; hits give low values; OD600 absorbance (no concentration beside the values);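 active = OD600 absorbance below the run mean of sample wells minus 3.6 SD, in any replicate, cut at about 0.56 in these data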;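 note: stock transfer was 300 nL into about 60 µL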
FGF22 binding: binders of recombinant human FGF22 by thermal shift | calls only at 9.99 µM | Q9HCT0 | AID 651658 | SYPRO orange fluorescence; percent of sucrose octasulfate shift, DMSO zero | 340,000 compounds, 1.5% hits;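 active = melting point raised past a set limit in the mean and every replicate; three in four hits are not shown here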
Target sequence (Q9HCT0 whole entry, looked up): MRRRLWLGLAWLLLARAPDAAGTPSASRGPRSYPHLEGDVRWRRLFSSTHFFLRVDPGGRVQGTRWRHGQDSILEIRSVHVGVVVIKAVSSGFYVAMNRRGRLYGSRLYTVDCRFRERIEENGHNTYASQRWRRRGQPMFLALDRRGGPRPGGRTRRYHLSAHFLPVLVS
Ecoli rRNA inh OD600: also measured in Ecoli rRNA inh; calls as there; OD600 change, %; measured here: OD600 growth;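 optical density of the mix in the first replicate; 0 = DMSO median and -100 = no signal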
Ecoli rRNA inh RFP: further read-out of Ecoli rRNA inh, marked with its call; RFP signal change, %; measured here: RFP humanized mutant strains;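 first replicate; 0 = DMSO median and -100 = no signal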
* = called active by the depositor; i = inactive; . = not tested or not shown.

SMILES	HNF4A DNA FP	B2AR ag	Ecoli rRNA inh	Ecoli rRNA inh OD600	Ecoli rRNA inh RFP	UCH37 DUB inh	ALR inh	Ecoli growth	FGF22 binding
O=C(NCCOc1ccccc1F)c1ccc2c(=O)n3c(nc2c1)CCC3	-2.4	-4.7	-8.1	-5.5	1.5	-16.8	15.0	0.684	i
CCOc1ccc(-c2nnc(-c3ccncc3)o2)cc1OCC	-0.9	-11.0	3.1	1.1	-1.6	-1.5	-3.3	0.686	i
COC(=O)C1=C(C)N(Cc2ccccc2)C(=NCc2ccc(OC)cc2)N[C@H]1c1ccccc1	16.6	28.4	-38.8	-70.4	-3.4	1.8	-6.7	.	i
CCN(CC)CCCN1C(=O)C(O)=C(C(=O)c2cc3ccccc3o2)C1c1ccccn1 (stereo not drawn)	1.0	-2.9	.	.	.	9.4	-0.4	0.683	.
CCCCc1ccc(C2C3=C(CC(C)(C)CC3=O)NC3=C2C(=O)c2ccccc23)cc1 (stereo not drawn)	3.0	24.6	1.2	11.0	2.0	4.7	-0.9	0.682	i
COc1ccc(OC)c(NC2c3ccccc3C(=O)N2c2cccnc2)c1 (stereo not drawn)	3.5	3.7	2.4	1.1	4.7	-1.8	-8.3	0.776	i
COc1cccc2sc(N(C)c3ccccc3)nc12	-3.8	-0.2	.	.	.	0.8	-4.4	0.725	.
O=C(O)CCc1ncc(C(F)(F)F)cc1Cl	0.9	-2.1	.	.	.	1.6	-2.0	0.69	.
Cc1cccc(NC(=O)CCCN2C(=O)c3cccc4cccc(c34)C2=O)c1	2.1	0.5	.	.	.	-74.6	2.8	0.733	.
OC1COC(O)C(O)C1O (stereo not drawn)	-1.5	-6.3	.	.	.	-2.2	-33.7	0.677	i
COc1ccc(CN(C)CCCn2cnc(C(=O)Nc3ccc(C)c(C)c3)n2)cc1OC	-0.8	-10.0	4.7	15.2	-2.5	.	.	.	i
CCc1c(C)sc(NC(=O)c2cnn3cccnc23)c1C#N	-4.5	3.2	.	.	.	3.8	-8.7	0.716	.
COc1ccccc1NC(=O)C(=O)NNS(=O)(=O)c1ccc2ccccc2c1	-1.1	1.5	-31.4	-31.8	8.1	1.0	41.3	0.639	i
CN(C)/C=N/C1=C(C#N)C(c2ccc(Br)cc2)c2ccc3ccccc3c2O1 (stereo not drawn)	2.2	2.1	-5.5	-3.3	0.6	.	.	.	i
CC(C)C[C@H](NC(=O)N1CC(=O)Nc2ccccc21)C(=O)N[C@@H](C(=O)O)c1ccccc1	1.2	-3.5	5.5	4.2	-0.5	1.9	-0.5	0.681	i
COc1ccc(CCNC(=O)[C@H](C)N2C(=O)N3CCc4c([nH]c5ccccc45)[C@@]3(C)C2=O)cc1	-0.8	4.2	.	.	.	3.2	.	0.732	i
Fc1ccc(N2CCN(c3nc(CN4CCOCC4)nc4scc(-c5ccccc5)c34)CC2)cc1	0.5	14.8	-24.9*	-17.1*	-1.3*	4.2	23.9	0.701	i
O=C(Nc1ccc(OCC(=O)N2CCOCC2)cc1)Nc1cccc2ccccc12	2.1	2.5	2.6	14.6	-2.0	3.4	-94.1	0.708	i
Cc1ccccc1OCC(=O)NNC(=O)C1CCN(c2ncnc3sc(C)c(C)c23)CC1	-0.4	14.6	-8.8	-10.4	2.7	1.8	-1.4	0.672	i
COc1cccc(C(=O)OC2CCCN(C)C2)c1 (stereo not drawn)	-2.5	-0.9	.	.	.	5.6	-2.6	0.689	.
Cc1ccc(C)c(OCC(=O)N/N=C/c2ccsc2)c1	3.1	-3.0	.	.	.	.	-0.2	.	.
NS(=O)(=O)c1ccc(CCNC(=O)CSc2nc3ccccc3c(=O)n2CC2CCCO2)cc1 (stereo not drawn)	-1.5	-5.6	5.0	3.8	0.7	4.9	-1.5	0.701	i
COC(=O)Cn1c(C(O)c2ccccc2)nc2ccccc21 (stereo not drawn)	-1.5	4.8	1.3	2.3	-4.6	5.1	-6.7	0.668	i
COc1ccc(S(=O)(=O)Cc2ccc(C(=O)N3CCOCC3)o2)cc1	-3.1	3.6	12.1	10.2	1.9	5.3	24.9	0.715	i
COC(=O)c1ccc(NC(=O)CSc2nc(=O)n3cccc(C)c3n2)cc1	-0.1	1.3	-0.2	-0.6	2.3	1.3	67.1	0.692	i
Remaining list, next part:
SMILES	HNF4A DNA FP	B2AR ag	Ecoli rRNA inh	Ecoli rRNA inh OD600	Ecoli rRNA inh RFP	UCH37 DUB inh	ALR inh	Ecoli growth	FGF22 binding
CCOc1ncccc1C(=O)N(CC)CC(=O)Nc1ccc(NC(C)=O)cc1	-0.8	-1.7	.	.	.	-0.2	-1.3	0.66	i
CCN1CCN(C(=S)c2ccc(Cl)c(Cl)c2)CC1	-0.6	-0.9	.	.	.	2.5	9.4	0.694	.
Cc1ccc(C)c(NC(=O)CCCCCN2C(=O)[C@@H]3Cc4ccccc4CN3C2=O)c1	0.9	-3.5	14.3	13.9	-0.9	1.1	-1.5	0.641	i
Cc1ccc(CNS(=O)(=O)c2c(C)n(C)c(=O)n(C)c2=O)cc1	1.4	12.5	3.7	2.2	0.1	2.0	3.4	0.681	i
CC[n+]1ccc(/C=C/c2ccc(N(C)C)cc2)c2ccccc21	3.8	-118.8	-75.8	-26.3	60.8	13.0	.	0.347*	.
Cc1nc(N)sc1-c1ccccc1	3.2	9.9	-6.8	-4.4	0.4	2.6	.	0.573	i
Cc1cc(C)n2nc(CC(=O)NCc3ccc(F)cc3)nc2n1	1.2	-6.2	.	.	.	2.2	-2.4	0.682	.
O=S1(=O)Nc2c(ccc3cccnc23)-c2ccccc21	-0.6	35.3	.	.	.	2.8	39.5	0.222*	.
O=C(O)CN1CCCCCC1=O	0.7	6.6	9.0	4.0	-4.3	4.0	-3.7	0.664	i
COc1ccc(N2CCN(C(=O)C3Cc4ccccc4CN3C(=O)c3ccco3)CC2)cc1 (stereo not drawn)	-2.5	0.6	.	.	.	0.7	48.2	0.656	i
Cc1ccc(NC(=O)CN(C)C(=O)C(C)OC(=O)CNC(=O)c2ccc(Cl)c([N+](=O)[O-])c2)cc1 (stereo not drawn)	3.2	2.2	-4.3	2.1	-2.7	1.5	-2.5	0.639	i
O=C(NCC1CCN(Cc2ccccc2F)CC1)Nc1ccccc1F	-3.7	2.8	6.6	13.3	-0.5	-5.0	-1.5	0.67	i
FC(F)(F)c1ccccc1Cc1c(C2CCCCC2)nc2ccc(Br)cn12	8.0	.	9.2	7.1	4.4	.	.	.	i
CCCC1(C(=O)OCC)NC(c2cc(OC)c(OC)c(OC)c2)C2C(=O)N(CC)C(=O)C21 (stereo not drawn)	3.8	10.6	.	.	.	1.0	-2.7	0.723	.
Cc1cccc(-c2nnc(NC(=O)c3ccc(Cl)cc3)o2)c1	-1.9	9.4	.	.	.	1.9	40.6	0.517*	.
COc1ccccc1S(=O)(=O)Cc1ccc(C(=O)N2CCN(c3ccc(C)cc3)C(C)C2)o1 (stereo not drawn)	-0.8	-0.1	-0.6	-4.0	3.0	1.7	72.8	0.759	i
Clc1ccc(OCCSc2nnnn2C2CCCCC2)cc1	-0.6	-13.1	.	.	.	-1.6	-0.8	0.696	.
CC(=O)Oc1ccc(C2(C)CC(C)(C)Oc3cc(OC(C)=O)ccc32)c(OC(C)=O)c1 (stereo not drawn)	-1.7	12.2	-9.6	-7.8	1.5	3.3	-7.0	0.679	i
CN(CC(=O)NCCc1ccc(S(N)(=O)=O)cc1)Cc1ccc(Cl)cc1Cl	0.5	-3.5	-11.6	-13.3	5.3	5.7	.	0.666	i
O=c1ccc2cc(S(=O)(=O)NCCCc3ccccc3)ccc2[nH]1	0.9	-7.4	1.5	7.0	1.4	-1.5	-2.9	0.707	i
O=c1[nH]c(=S)[nH]c2c1C(c1cccc(C(F)(F)F)c1)OC(CCc1ccccc1)C2 (stereo not drawn)	2.0	.	-4.6	-14.9	12.0	.	.	.	i
COc1ccc(CNC(=O)CN2C(=O)NC(C)(c3ccc(Cl)cc3)C2=O)cc1 (stereo not drawn)	3.4	-4.9	-7.3	13.6	3.9	0.7	-20.3	0.689	i
COc1ccc(NC(=O)C(=S)NC2CCCCC2)cc1	0.7	0.8	-3.9	1.7	0.0	5.6	-9.2	0.673	i
O=C(NCc1nnnn1-c1ccc(F)cc1)c1ccc([N+](=O)[O-])o1	1.7	8.6	-13.8	-0.2	-5.3	7.1	-18.1	0.622	i
CCC(=O)Nc1c2c(nn1-c1ccc(OC)cc1)CS(=O)C2 (stereo not drawn)	3.5	5.2	2.1	4.4	0.7	1.5	-4.8	0.716	i

Brought forward from above: two entries, then new ones.
SMILES	HNF4A DNA FP	B2AR ag	Ecoli rRNA inh	Ecoli rRNA inh OD600	Ecoli rRNA inh RFP	UCH37 DUB inh	ALR inh	Ecoli growth	FGF22 binding
O=C(NCc1nnnn1-c1ccc(F)cc1)c1ccc([N+](=O)[O-])o1	1.7	8.6	-13.8	-0.2	-5.3	7.1	-18.1	0.622	i
CCC(=O)Nc1c2c(nn1-c1ccc(OC)cc1)CS(=O)C2 (stereo not drawn)	3.5	5.2	2.1	4.4	0.7	1.5	-4.8	0.716	i
Oc1cccc(Nc2ncnc3ccccc23)c1	4.7	-7.8	3.8	1.0	-7.6	6.7	71.0	0.655	i
Cc1c(CN(C)C(=O)c2nn(C)cc2[N+](=O)[O-])cnn1C	-0.5	7.6	.	.	.	6.9	0.4	0.746	.
Cc1cc(C(F)(F)F)nn1CC(=O)N(C)c1ccccc1	1.1	0.7	11.4	15.9	0.4	0.0	0.8	0.697	i
CC1Cc2ccccc2N1C(=O)COC(=O)c1cccc(Br)c1 (stereo not drawn)	-2.1	-4.1	-32.5*	-25.9*	-6.1*	-0.4	8.0	0.686	i
Oc1cccc(Nc2nc(N3CCOCC3)nc(N3CCOCC3)n2)c1	-5.0	-2.3	-11.1	-19.0	-1.9	2.2	83.7*	0.669	i
O=C(CNc1cccc([N+](=O)[O-])c1)NCCCc1ccccc1	1.3	3.4	20.1	-5.4	8.0	2.9	1.2	0.647	i
COc1ccccc1CN1C(=NC(=O)C2CCCCC2)SC2CS(=O)(=O)CC21 (stereo not drawn)	-1.3	0.7	2.5	2.3	-3.3	0.6	4.2	0.691	i
CN=c1scc(C)n1/N=C/c1cc(Br)c(O)c(Br)c1	2.0	-2.4	0.1	0.3	-1.0	.	.	.	i
COc1ccc(CN(C)C(=O)c2cccc(S(=O)(=O)NCc3ccccc3)c2)cc1F	1.4	.	6.5	16.9	3.1	.	.	.	i
CCOC(=O)N1CCN(C(=S)Nc2cc(OC)c(OC)cc2C(=O)OC)CC1	-4.0	3.7	3.4	13.8	9.3	5.2	1.3	0.681	i
N=C1C(c2nc3ccccc3s2)=C(O)CN1NC(=O)c1ccco1	-2.1	2.6	14.3	8.1	-0.6	-2.6	-5.1	0.744	i
Cn1cnc([N+](=O)[O-])c1Oc1ccc2ccccc2c1	4.3	15.1	.	.	.	2.9	0.4	0.656	.
CN(C)Cc1n[nH]c(=O)c2ccccc12	1.5	-3.9	2.5	12.1	6.4	2.1	-33.8	0.708	i
CCOC(=O)c1[nH]c(C)c(C(=O)Nc2ccc(C)c(C)c2)c1C	1.0	-3.8	-10.7	-8.7	0.7	5.2	17.2	0.758	i
Cc1cc(-c2cccc(Br)c2)c(C#N)c(N)n1	1.5	1.3	20.4	4.2	1.1	-35.3	.	0.654	i
CCN(CC)CCSc1nnc2c3ccccc3n(CCc3ccccc3)c2n1	1.9	1.8	-0.8	4.1	3.0	6.2	3.7	0.642	i
CCC1CCCCN1C(=O)c1cc(COc2ccc3ncccc3c2)on1 (stereo not drawn)	-0.4	-3.3	-30.1*	-20.2*	-2.2*	1.5	-1.7	0.703	i
CN(Cc1ccc(F)cc1)C(=O)CNC(=O)C1CCCCC1	-1.4	-9.6	8.7	0.1	0.4	5.0	-7.1	0.674	i
CCCc1nc(-c2ccc(-c3ccc(F)cc3)cc2)no1	0.5	2.0	.	.	.	3.8	-5.4	0.69	.

Source: PubChem BioAssay (several laboratories)

The list is partial. The share of hits here may be higher or lower than overall.
